Assay outcomes from PubChem BioAssay.
VDR inh: blocks the human vitamin D receptor | P11473 | VDR-SRC2-3 peptide fluorescence polarization, 2 h | Potency, µM, for inactives: max response, negative = inhibition, hits mostly inhibitors | 0.93% of 400,000 active | AID 504847; active means well fitted inhibition curve with a large enough effect; inconclusive means small, poorly fitted or top-dose-only effect, or another doubt; inactive means no such curve, though single readings can be large or run the other way; further: series mostly up to about 120 µM
Target sequence (P11473 whole entry, looked up): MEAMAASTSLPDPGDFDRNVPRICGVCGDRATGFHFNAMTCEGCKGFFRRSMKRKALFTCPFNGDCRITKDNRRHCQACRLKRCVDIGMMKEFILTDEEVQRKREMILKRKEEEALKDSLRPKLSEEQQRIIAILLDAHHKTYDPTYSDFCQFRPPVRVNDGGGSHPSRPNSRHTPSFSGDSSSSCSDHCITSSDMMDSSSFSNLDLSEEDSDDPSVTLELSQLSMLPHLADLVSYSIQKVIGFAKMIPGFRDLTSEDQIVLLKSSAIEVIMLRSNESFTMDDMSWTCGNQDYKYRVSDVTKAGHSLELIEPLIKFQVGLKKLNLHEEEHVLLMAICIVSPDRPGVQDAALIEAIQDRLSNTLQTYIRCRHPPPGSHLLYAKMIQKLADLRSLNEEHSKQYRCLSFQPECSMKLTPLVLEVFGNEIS
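Two reagent solutions held at 4 deg C in the dark were dispensed, compounds pinned at 23 nl, and the mixture incubated 2 h at room temperature. Read-out: fluorescence polarization of VDR–SRC2-3 peptide binding.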
Active calls of the source: *; ? = inconclusive; & = joins results of further samples; [ ] = remark or other dose. On the % scale 0 is the no-effect control and ±100 the full control effect; potency means the concentration at half of the fitted maximal effect. An excerpt; rates above refer to the full screens.

Sample of the layout (5 entries):
SMILES	VDR inh
O=C(OCC1OC(n2ncc(=O)[nH]c2=O)C(OC(=O)c2ccccc2)C1OC(=O)c1ccccc1)c1ccccc1 (stereo not drawn)	-12.2%
CC(C)CCNc1nc2ccccc2nc1NS(=O)(=O)c1cccs1	-6.5%
O=C(CSc1nccn1-c1cccc(Cl)c1)Nc1cccc(C(F)(F)F)c1	-3.6%
CCC(CC)c1nnc(NC(=O)C2CSC3(C)CCC(=O)N23)s1 (stereo not drawn)	-1.5%
CCOC(=O)c1ccc(-c2ccc(/C=N/NC(=O)c3cncc(Br)c3)o2)cc1	-23.7%

All compounds of this part, repeating the preview:
SMILES	VDR inh
O=C(OCC1OC(n2ncc(=O)[nH]c2=O)C(OC(=O)c2ccccc2)C1OC(=O)c1ccccc1)c1ccccc1 (stereo not drawn)	-12.2%
CC(C)CCNc1nc2ccccc2nc1NS(=O)(=O)c1cccs1	-6.5%
O=C(CSc1nccn1-c1cccc(Cl)c1)Nc1cccc(C(F)(F)F)c1	-3.6%
CCC(CC)c1nnc(NC(=O)C2CSC3(C)CCC(=O)N23)s1 (stereo not drawn)	-1.5%
CCOC(=O)c1ccc(-c2ccc(/C=N/NC(=O)c3cncc(Br)c3)o2)cc1	-23.7%
Clc1ccccc1CNc1ncnc2c1c(-c1ccccc1)cn2-c1ccccc1	0.5%
C/C(=C\c1ccccc1)C(=O)NC1CCSC1=O (stereo not drawn)	6.9%
Cn1nc(C(F)(F)F)c(/C=N/OC(=O)c2ccccc2Cl)c1SCc1ccccc1Cl	-1.9%
N[C@H](C(=O)O)c1cccc(O)c1	7.2%&1.3%&-2.8%
CNC(=O)COC(=O)c1ccc(OCC(=O)Nc2ccccc2OC)c(OC)c1	3.5%
CC(C)CN(C(=O)CCNC(=O)c1ccc([N+](=O)[O-])cc1)C1CCS(=O)(=O)C1 (stereo not drawn)	2.4%
O=C(c1ccccc1F)N1CCN(c2ccc([N+](=O)[O-])c(NCc3cccnc3)c2)CC1	0.9%
COc1ccc(-c2cc3ccc(OCc4nn[nH]n4)cc3oc2=O)cc1	-8.0%
CCOC(=O)C(=Cc1ccc(OCc2ccc([N+](=O)[O-])cc2)c(OC)c1)C(=O)OCC	79.4µM*
CN(CCOC(=O)c1cccc(F)c1)Cc1ccccc1	6.8%
O=C(Oc1ccc(C(=S)N2CCCCC2)cc1)c1ccccc1	0.7%
O=[N+]([O-])c1ccc(Sc2n[nH]c(-c3ccccc3)n2)nc1	-1.1%
COc1cccc(CNC(=O)CCS(=O)(=O)c2cccc3nsnc23)c1	-17.4%
C=C1c2ccccc2S(=O)(=O)N(Cc2ccccc2)C1COCc1ccccc1 (stereo not drawn)	-19.7%
COc1nn(CC(=O)N2N=C(C)CC2(O)C(F)(F)F)cc1[N+](=O)[O-] (stereo not drawn)	-2.3%
O=C(NCCN1CCCC1)C1CC(=O)N(C2CCCCC2)C1 (stereo not drawn)	-5.4%
COc1cc2c(cc1NC(=O)C(C)Sc1cccc[n+]1[O-])oc1ccccc12 (stereo not drawn)	4.9%
CCOC(=O)C1CCN(C(=O)c2cc3cc4cc(OC)ccc4nc3o2)CC1	-6.5%
CCOC(=O)Cn1c(=O)oc2cc(S(=O)(=O)NCCC(C)C)ccc21	-6.0%
O=C(c1ccc(-n2cncn2)c([N+](=O)[O-])c1)N1CCN(S(=O)(=O)c2c(F)cccc2F)CC1	-0.4%
CCC(C(=O)Nc1ccccc1C(=O)OC)n1nc(C)c2c(C)n(-c3ccc(C)cc3)nc2c1=O (stereo not drawn)	0.7%
O=C(Nc1ccc2c(c1)OCCO2)C1CCCN1C(=O)Nc1ccccc1 (stereo not drawn)	0.1%
CC(C)N(Cc1cc2ccccc2[nH]c1=O)C(=O)c1cccc([N+](=O)[O-])c1	-2.1%
O=C(N/N=C/C(Cl)=C/c1ccccc1)c1ccc2c(c1)OCO2	-23.3%
CCOC(=O)N1CCN(C(=O)c2ccc(Cl)c(S(=O)(=O)Nc3ccccc3)c2)CC1	-3.3%
CCCc1nnc(SCC(=O)N2CCCC(C)C2)n1CCCOC (stereo not drawn)	-9.4%
CCC12CN3CCN(CC(C3)/C1=N\NC(=O)c1ccc(C(C)(C)C)cc1)C2	6.4%
COc1ccc(CNC(=O)c2cnc3sc(N4CCC(C)CC4)nn3c2=O)c(OC)c1	4.6%
CC(=O)CCCC(NS(=O)(=O)CCC(Cl)(Cl)Cl)c1ccccc1 (stereo not drawn)	-18.6%
Cc1cc2c(cc(C(=O)OCC(=O)NC3CCCCC3)n2C)o1	?
CC(C)Cn1c2c(c(=O)[nH]c1=O)C(C(F)(F)F)(C(F)(F)F)N=C(CCC1CCCCC1)N2	-8.6%

Three entries from above, ordered by their value in VDR inh, falling.
SMILES	VDR inh
C/C(=C\c1ccccc1)C(=O)NC1CCSC1=O (stereo not drawn)	6.9%
CC(C)N(Cc1cc2ccccc2[nH]c1=O)C(=O)c1cccc([N+](=O)[O-])c1	-2.1%
COc1ccc(-c2cc3ccc(OCc4nn[nH]n4)cc3oc2=O)cc1	-8.0%

Next section
SMILES	VDR inh
Cc1nn(-c2ccc(Cl)c(Cl)c2Cl)c(=O)c2ccccc12	7.6%
CC(=O)N1N=C2c3ccccc3CCC2C1c1ccc(F)cc1 (stereo not drawn)	2.0%
COc1ccc(CC(=O)Nc2cc(C)ccn2)cc1	5.5%
NC(=O)C1CCCN(C(=O)c2ccc(-c3cccc(Cl)c3Cl)o2)C1 (stereo not drawn)	-7.8%
Cc1ccc(NC(=O)Cn2cc(S(=O)(=O)c3ccc(C)cc3)c(=O)c3cc(F)ccc32)cc1	-6.5%
CC1(C)CC(=O)C2=C(C1)Oc1ncn3nc(-c4cccnc4)nc3c1C2c1ccccc1 (stereo not drawn)	-4.7%
Cc1ccc(CSCCNC(=O)CN(c2ccccc2)S(C)(=O)=O)cc1	0.3%
Nc1ccc(C(=O)N/N=C/c2c[nH]c3ccccc23)cc1	-1.8%
CCS(=O)(=O)N1CCC(C(=O)NCCc2ccccc2)CC1	4.8%
Cc1ccccc1/C=N/NC(=O)Cc1ccc(Cl)cc1	6.4%
CCC(=O)N1N=C(c2ccc(NS(C)(=O)=O)cc2)CC1c1ccc(C)cc1 (stereo not drawn)	-5.1%
COc1nc2ccccc2nc1N1CCN(Cc2ccc3c(c2)OCO3)CC1	6.5%
CCOc1cc(S(=O)(=O)N2CCC(c3nc4ccccc4s3)CC2)c(OCC)cc1S(=O)(=O)N1CCCCC1	10.8%
Cc1ccccc1C(=O)Nc1c(C)nc2ccccn2c1=O	-0.6%
C/C(N)=C(/C#N)C(=O)COC(=O)CSc1ccc2ccccc2c1	20.3%
CCOc1ccc(C(=O)c2ccc([N+](=O)[O-])cc2Cl)cc1	-20.0%
CC(OC(=O)C(NC(=O)c1ccco1)C(C)C)C(=O)Nc1ncc(Cl)cc1Cl (stereo not drawn)	-12.0%
CN(C)CCCOC(=O)c1ccc(Cl)cc1	-0.7%
Cn1cccc1C(=O)NNC(=O)COc1ccc(Br)cc1	16.8%
Cc1cccc(N(C)C(=O)COc2cc(=O)n(C)c3ccccc23)c1	4.3%
Nc1cc(C(=O)OCC(=O)NCC2CCCO2)ccc1Cl (stereo not drawn)	13.6%
COc1ccccc1NS(=O)(=O)c1cc(NC(=O)CN2C(=O)NC3(CCCCC3)C2=O)ccc1C	11.0%
O=C(NCC1CCCO1)C(c1ccc(F)cc1)N(CC1CCCO1)C(=O)c1ccc(-c2ccccc2)[nH]1 (stereo not drawn)	-10.0%
CCCn1c(N)c(N(CCOC)C(=O)Cc2ccc(S(=O)(=O)N3CCOCC3)s2)c(=O)[nH]c1=O	8.4%
COc1ccc(NC(=O)c2ccccc2SC)cc1	2.2%
Cc1ccc(C2=NN(S(C)(=O)=O)C(c3ccc4c(c3)OCO4)C2)cc1 (stereo not drawn)	3.3%
FC(F)(F)c1cnc(Oc2ccc(-c3nnco3)cc2)c(Cl)c1	2.2%
Clc1ccc2c(N/N=C/c3cccnc3)ccnc2c1	-6.8%
O=C(Nc1cc(Cl)ccc1Cl)N1CCCC1	?
CC(=O)Nc1ccc(C(=O)CCl)cc1	-26.9%
CCCCn1nnnc1SCC(=O)Nc1ccc2c(c1)OCO2	7.0%
CCC(C)[C@H]1CNCCN1CCc1cc(C(F)(F)F)cc(C(F)(F)F)c1 (stereo partly drawn)	3.1%
CC1=NN(C(=O)Cc2ccc([N+](=O)[O-])cc2)C(O)(C(F)(F)C(F)(F)F)C1 (stereo not drawn)	-31.3%
CCN=C(NCC)SC1CC(=O)N(c2ccc(F)cc2)C1=O (stereo not drawn)	-8.0%
Cc1cc(C)cc(N(CC(=O)NCC2CCCO2)C(=O)CCC(=O)Nc2nccs2)c1 (stereo not drawn)	-5.4%
CCOc1ccc(Br)cc1S(=O)(=O)NC(=O)c1ccccc1	-14.2%

Compounds listed so far that have a thiophene ring, fused or not, in the order listed:
SMILES	VDR inh
CC(C)CCNc1nc2ccccc2nc1NS(=O)(=O)c1cccs1	-6.5%
CCCn1c(N)c(N(CCOC)C(=O)Cc2ccc(S(=O)(=O)N3CCOCC3)s2)c(=O)[nH]c1=O	8.4%

(further entries)
SMILES	VDR inh
CCS(=O)(=O)N1N=C(c2ccc(C)cc2)CC1c1cc2ccc(OC)cc2nc1Cl (stereo not drawn)	-11.4%
N#Cc1ccsc1NC(=O)CN1C(=O)NC2(CCCCC2)C1=O	-9.3%
CCC(C)C(NC)C(=O)O (stereo not drawn)	-0.7%
CN(Cc1c(C(=O)N/N=C/c2ccccc2)nnn1-c1nonc1N)C1CCCCC1	?
COc1cccc(OC)c1C(=O)Nc1ccccc1C(=O)N1CCOCC1	-5.8%
CC(C)c1ccc(NC(=S)NN(c2ccccc2)c2ccccc2)cc1	?
CC1(C)CC(=O)C(C(N)=NC(=O)c2ccccc2)=C(O)C1	-9.7%
CCC(=O)c1ccc(OCc2ccc(C(=O)OC)cc2)c(OC)c1	-10.3%
CC(C)c1nc2ccccc2c2nnc(SCC(=O)NCc3ccco3)n12	-18.5%
CCN(C(=O)CSc1nc(C)c(C)c(C)n1)C1CCS(=O)(=O)C1 (stereo not drawn)	-3.7%
O=C1c2ccccc2C(=O)N1S(=O)(=O)c1ccccc1	14.6%
COC(=O)c1sccc1NC(=S)N1CCCCC1C (stereo not drawn)	5.3%
CCCN1CCC(=O)N([C@H](CSc2ccc(C)cc2)Cc2ccccc2)CC1	-15.7%
CCOc1ccc(-c2nnc3sc(COc4ccc(C)cc4)nn23)cc1	-7.7%
Cc1ccc(Oc2ccc(S(=O)(=O)Nc3ccc(C(=O)O)cc3)cc2)cc1	16.3%
COC(=O)c1ccccc1NC(=O)Cn1c(=O)n(-c2cccc(OC)c2)c(=O)c2c(C)c(C(=O)N(C)C)sc21	4.9%
COC(=O)C1=C(C(=O)OC)SC(=C2C(=S)C(C)(C)N(C(=O)C3CC3)c3ccccc32)S1	-4.3%
O=C(Nc1cccc(C(=O)N2CCOCC2)c1)c1ccccc1	6.1%
ONC(=Nc1ccc(Cl)cc1)c1ccc(Cl)cc1	9.3%
Cc1ccc(C(=O)NCCCNC(=O)c2ccco2)cn1	15.7%
CCNc1nc(NCC)nc(N/N=C/c2ccc(O)c(O)c2)n1	-0.1%
Cc1sc2ncnc(N3CCC(C(=O)Nc4ccc(C#N)cc4)CC3)c2c1C	-2.0%
Cn1c(N)c(C(=O)COC(=O)CNC(=O)c2ccccc2)c(=O)n(C)c1=O	-0.6%
CCNC(=S)N(CCN(C)C)Cc1cc2cc(OCC)ccc2[nH]c1=O	6.1%

With a hit mark in VDR inh, of those listed so far:
SMILES	VDR inh
CCOC(=O)C(=Cc1ccc(OCc2ccc([N+](=O)[O-])cc2)c(OC)c1)C(=O)OCC	79.4µM*

(listing goes on)
SMILES	VDR inh
Cc1ccc(Nc2c(-c3ccc(C)cc3)nc3c(C)cccn23)cc1	10.4%
O=C(O)C1Nc2ccc(Br)cc2C2C=CCC12 (stereo not drawn)	?
Cc1ccc2cc(CN(C(=O)c3ccco3)c3cccc(C)c3C)c(=O)[nH]c2c1	?
Cc1nn(C(=O)c2cc([N+](=O)[O-])ccc2Cl)c(C)c1Br	-15.9%
COc1cccc(-n2c(Cc3cc(=O)[nH]c(=O)[nH]3)nnc2SCC(=O)N2CCC(C)CC2)c1	-14.5%
CC#CC(=O)N1CCC(CCc2ccccc2)(C(=O)OCC)CC1	-7.9%
Cc1c(C(=O)Nc2nccs2)sc2nc(-c3cccs3)cc(C(F)(F)F)c12	6.8%
Cc1cc([N+](=O)[O-])nn1CCCC(=O)Nc1cccnc1Cl	20.0%
Cc1nn(-c2ccccc2)c(C)c1P(=O)(c1ccccc1)N(C)C (stereo not drawn)	9.5%
Cc1cc(Cl)c(S(=O)(=O)NCc2cccnc2)cc1OCC(=O)NC1CCCCC1	-1.0%
CCOC(=O)c1ccc(NC(=O)c2ccc3c(c2)CCN3S(=O)(=O)c2ccc(Cl)cc2)cc1	3.9%
CCNC(=O)Nc1ccccc1C(=O)OC	-13.6%
O=c1c2ccccc2nc(/C=C/c2ccccc2)n1CCCO	-3.4%
Cc1cc(NC(=O)CSc2nnc(-c3ccco3)n2C)no1	11.2%
Cc1cc(=O)oc(C)c1C(=O)NC1CC(C)(C)NC(C)(C)C1	-3.0%
Cc1ccc(S(=O)(=O)N2CCC(=O)N(CCOC(=O)Nc3ccc(F)cc3)CC2)cc1	-13.7%
Cc1ccc(CN(C(=O)c2c(F)cccc2F)C2CC(C)(C)NC(C)(C)C2)o1	2.6%
NNC(=O)CCN1CCN(Cc2ccccc2)CC1	14.0%
CCOC(=O)[C@H]1[C@H]2COc3ccc(Cl)cc3[C@@H]2N2C(=O)CN(Cc3ccccc3)C(=O)[C@@]12C	-17.5%
Fc1cccc(CNCc2ccc3c(c2)OCO3)c1	-13.6%
CS(=O)(=O)c1ccccc1-c1nnc(NC(=O)c2ccc(S(=O)(=O)N3CCCC3)cc2)o1	-11.7%
Cc1ccc(NC(=O)CSc2nc3c(c(=O)[nH]2)CN(Cc2ccc4c(c2)OCO4)CC3)cc1C	3.5%
O=C(Cc1cccs1)Nc1ccc(-c2nnn(CC(=O)N3CCOCC3)n2)cc1	-2.9%
CCOC(=O)C1CCN(C(=O)Cc2ccc(OC)c(OC)c2)CC1	32.0%[activator]
CSc1ccc(C(=S)N2CCN(C)CC2)cc1	-53.7%
